miR-21 FLuc = raises the signal of a miR-21 reporter | 340,000 tested, under 10 active | Potency, µM (top dose mostly 38.3 µM), inactives show at the top dose reporter change, positive = more light | HeLa miR-21 FLuc reporter, luciferase, 48 h; active = well fitted rising curve with a large enough effect; inconclusive = small, poorly fitted or top-dose-only effect; inactive = no such curve, though single readings can be large or run the other way;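 further: % of control where 0% means no effect; miR-21 action dims this reporter so a rising signal means less miR-21 action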
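Luminescence from a firefly luciferase reporter carrying a miR-21 binding site downstream, stably expressed under a CMV promoter in HeLa cells that make miR-21 endogenously, reports miRNA modulation after 48 h compound exposure up to approximately 40uM final.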
Rango dissoc inh = prevents RanGTP from dissociating the Rango-importin beta complex | O95149+P62826 | Biochemical FRET Rango-importin beta, RanGTP-induced dissociation | Potency, µM (series often up to 46.1 µM), for inactives: at the highest dose activity change, negative = inhibition | hit rate 0.071% among 340,000; active means falling FRET ratio curve, often poorly fitted, with flat reads before Ran was added; inconclusive means other falling curves, or compound fluorescence or quenching; inactive means flat or rising ratio curve;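 further: potency means the concentration at half of the fitted maximal effect; % of control where 0% means no effect; nearly all actives have a fitted effect of over 45% in size; -100% = wells without RanGTP and RCC1; the record marks most hits as doubtful in a second field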
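Two FRET readings bracket the reaction: one 5 min after compound meets Rango–importin beta, another 45 min after RanGTP-RCC1 (0.6 uM Ran, 0.2 uM RCC1, 2 mM GTP) is added. Only the second defines inhibition.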
GLA inh pH 4.5 = inhibitors of human alpha-galactosidase A at pH 4.5 | P06280 | purified enzyme, 4-MU-alpha-Gal fluorescence, pH 4.5 | activity change, negative = inhibition, % at 105 µM | 230,000 tested, under 10 active | AID 1467; inconclusive = small, poorly fitted or top-dose-only inhibition, or a rising curve; inactive = flat fitted curve, though single readings scatter; no compound was filed as active;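 further: 0% = full activity with enzyme and -100% = basal without enzyme; dose as in the result columns while the protocol names 77 µM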
Target sequence (P06280 whole entry, looked up): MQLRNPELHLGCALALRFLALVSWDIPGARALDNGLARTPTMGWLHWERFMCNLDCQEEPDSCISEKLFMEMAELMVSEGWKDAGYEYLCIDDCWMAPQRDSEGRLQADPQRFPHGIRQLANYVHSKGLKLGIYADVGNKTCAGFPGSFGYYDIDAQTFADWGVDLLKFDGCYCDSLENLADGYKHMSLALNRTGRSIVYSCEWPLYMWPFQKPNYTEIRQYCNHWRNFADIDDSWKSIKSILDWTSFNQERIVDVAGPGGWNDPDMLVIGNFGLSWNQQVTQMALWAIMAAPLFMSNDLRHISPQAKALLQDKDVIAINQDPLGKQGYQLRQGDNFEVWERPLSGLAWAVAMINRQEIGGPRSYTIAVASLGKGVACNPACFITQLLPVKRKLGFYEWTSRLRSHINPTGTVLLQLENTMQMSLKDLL
Rango-impB inh = Rango-importin beta binding inhibition; Rango CFP/YFP FRET sensor + importin beta, 45 min; Potency, µM (highest dose often 92.2 µM), for the others: at the top dose inhibition of complex formation; hit rate 0.031% among 340,000; active = rising FRET ratio curve, often small or poorly fitted; inconclusive = mostly compound fluorescence or quenching in the first reads; inactive = flat curves in all reads;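 further: potency means the concentration at half of the fitted maximal effect; 0% = DMSO wells and 100% = buffer wells lacking importin beta; nearly all actives have a fitted effect of over 15% in size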
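FRET biosensor Rango (snurportin 1 IBB between N-terminal EYFP and C-terminal Cerulean), 50 nM in PBS/1 mM DTT/0.02% Tween-20/0.1% BSA, preincubated 5 min RT with compound; 0.125 microM importin beta added, 45 min RT, CFP/YFP FRET ratio read.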
* hit, by the source's call; ? = inconclusive; · = no result given; & = joins results of further samples; [ ] = another dose, or the depositor's remark. An excerpt (hit frequency here may not be typical).

SMILES	miR-21 FLuc	Rango dissoc inh	GLA inh pH 4.5	Rango-impB inh
C=CCn1c(O)c(N=NC(=O)CNC(=O)c2ccncc2)c2ccccc21	-13%	20%	·	?
C=CCn1c(SCC(=O)NC2CC2)nnc1-c1cccc(OC)c1	-2%	0%	·	2.3%
CCOC(=O)c1c(C)[nH]c(C(=O)OCC(=O)NCc2ccc(F)cc2)c1C	·	2%	·	0.2%
Cc1cc(N(CN2CCCC2=O)C(=O)c2ccc(OC(C)C)cc2)no1	-9%	15%	-23	-6.6%
COCCN(C(=O)CNC(=O)c1ccco1)C(C(=O)NC1CCCCC1)c1cccc(OC)c1 (stereo not given)	-10%	5%	-2	1.9%
CC(C)CC(NC(=O)C(COCc1ccccc1)NC(=O)OC(C)(C)C)C(=O)NN (stereo not given)	-1%	0%	-12[21.1 µM]	1.0%
CCC(C)(C)NC(=O)C(c1ccc(OC)cc1)N(CCOC)C(=O)CCC(=O)Nc1nccs1 (stereo not given)	2%	1%	7	1.0%
Cc1cccc(-c2nc(CN3CCN(C(=O)C4CCCO4)CC3)cs2)c1 (stereo not given)	3%	4%	·	-1.3%
O=S(=O)(Nc1ccccn1)c1cccs1	-4%	2%	2	0.9%
O=C(NCc1cccc(C(F)(F)F)c1)C1CC(c2cccc(F)c2)=NO1 (stereo not given)	1%	12%	-6	6.1%
CCCc1ccc(C(=O)NC(=O)c2ccccc2O)cc1	10%	-4%	-21	-2.0%
Cc1cccc(C)c1NC(=O)C1NC(=O)CC1c1ccccc1 (stereo not given)	-1%	-3%	-5	1.1%
CC(C)(C)c1nn2cnnc2n(/N=C/c2ccc(O)cc2)c1=O	-2%	-1%	-1	1.9%
CCN(CC)S(=O)(=O)c1cc(C)ccc1SC	-10%	15%	-1	-2.4%
CC1CCN(C(=O)c2ccc(NS(=O)(=O)c3cccs3)cc2)CC1	-21%	-10%	·	4.5%
Cc1ccc(-n2c(SCC(=O)NCc3ccco3)nc3sc(C)c(C)c3c2=O)cc1	-8%	6%	7	-0.4%
CC(Sc1nc2ncc(Cl)cc2[nH]1)C(=O)Nc1ccc(C(N)=O)cc1 (stereo not given)	·	8%	·	-1.4%
NC(=O)c1ccccc1NC(=O)c1ccoc1	-10%	2%	·	5.1%
O=C(Nc1ccccc1N1CCOCC1)c1ccc2c(c1)OCCO2	1%	-11%	·	-3.1%
O=C(O)c1ccc(N=NN2CCOCC2)cc1	-31%	4%	-15	-3.4%
CC1CN(CCCCOc2ccc3ccccc3c2)CC(C)O1 (stereo not given)	-19%	37%	-11	0.4%
S=c1[nH]nc(-c2cc3ccccc3o2)n1Cc1ccccc1	-10%	-6%	1	1.9%
O=C(c1ccc(CSc2ccccc2)cc1)N1CCCCCC1	-53%	-3%	-1	-4.9%
COc1ccc(C(CNC(=O)CNC(=O)c2ccccc2)N2CCCC2)cc1 (stereo not given)	·	1%	·	-0.4%
COc1ccccc1/C=C1\SC(=O)N(CCC(=O)NCCCn2ccnc2)C1=O	?	12%	·	0.3%
N/C(=C\C(=O)c1cc(Cl)ccc1O)C(Cl)(Cl)Cl	28%	21%	4	3.2%
CCOC(=O)N1CCN(CC(O)COc2ccc(C(C)C)c(C)c2)CC1 (stereo not given)	-4%	0%	·	1.1%
Nc1nnc(SCCOc2ccccc2)s1	-34%	-6%	-1	5.2%
CCN(CCCCN1C(=O)c2ccccc2C1=O)c1ccc2c(c1)C(=O)N(C)C2=O	-5%	?	10	?
CCOC(=O)C1CCCN(C(=O)c2sc3nc4n(c(=O)c3c2C)CCC4)C1 (stereo not given)	·	-20%	·	-1.6%
N#C/C(=N\O)c1nc2ccccc2[nH]1	-13%	?	6	?
CCc1c(C)c(C#N)c2nc3ccccc3n2c1NCc1ccccn1	0%	?	9	?
COc1ccc(NC(=O)c2ccc(CN(c3cc(Cl)ccc3C)S(=O)(=O)c3ccccc3)cc2)cc1OC	0%	-7%	2	0.1%
O=C(NC(=S)Nc1ccc(S(=O)(=O)NC2CCCCC2)cc1)c1cccs1	23%	12%	1	-0.2%
COc1ccc(-c2ocnc2C(=O)Nc2ccc(N3CCOCC3)cc2N2CCOCC2)cc1OC	-10%	?	·	-2.4%
Cc1ccc2c(c1)[C@H]1[C@H](CO2)[C@H](c2ccccc2)[C@]2(C)C(=O)Nc3ccc(Br)cc3C(=O)N12	·	14%	·	-6.9%
Cc1ccc(S(=O)(=O)N2CCCCC2)cc1NC(=O)COC(=O)c1cccn1C	·	0%	·	2.5%
C/C(Cn1nnc2ccccc21)=N\OC(=O)c1ccccc1C	-3%	2%	-15	1.5%
O=C(/C=C/c1ccc(S(=O)(=O)N2CCOCC2)cc1)NC(CO)C(O)c1ccc([N+](=O)[O-])cc1 (stereo not given)	·	-25%	·	?
CS(=O)(=O)N(CC(=O)N1CCN(c2ccccc2F)CC1)c1cc(C(F)(F)F)ccc1Cl	13%	-10%	-14	1.8%
Cc1cc(C)cc(Oc2coc3cc(OC(=O)c4cccnc4)ccc3c2=O)c1	-1%	-2%	-18	-0.7%
CC1(CC(=O)O)SC(=O)NC1=O (stereo not given)	1%	10%	-13	-1.0%
COc1ccc(-n2cc(-c3ccccc3)nc2SC)cc1	-66%	11%	-7	-1.9%
COc1ccc(N(CC(=O)Nc2ccccc2C)S(=O)(=O)c2c(C)[nH]c(=O)[nH]c2=O)cc1	0%	-17%	-3	3.6%
Cc1ccc2c(c1)-c1cc(C)nn1C(c1sccc1C)N2 (stereo not given)	-13%	-9%	5	?
O=C(N/N=C/c1cc2c(cc1Br)OCO2)c1ccccn1	-54%	-9%	-25	1.9%
CCCC(=O)N1CCN(C2=NS(=O)(=O)c3ccccc32)CC1	0%	0%	5	-2.6%
COc1ccc(NS(=O)(=O)c2cccc(N/C(=N\S(=O)(=O)c3ccccc3)c3ccc(F)cc3)c2)cc1	10%	-8%	9	-0.4%
Cc1ccc(Cl)cc1NC(=O)c1cc(NC(=O)C2CCCCC2C(=O)O)ccc1N1CCOCC1 (stereo not given)	-7%	11%	·	-3.4%
COCCNC(=S)N/N=C(\C)c1ccc(C)c([N+](=O)[O-])c1	-22%	-16%	-1	1.5%
CC12CCC(C(=O)N3CCN(Cc4ccccc4)CC3)(OC1=O)C2(C)C (stereo not given)	-3%	-6%	1	-2.4%
Cc1cc(C)c2nc(NC(=O)c3ccco3)sc2c1	-12%	7%	·	-0.4%
Cn1cccc1Cc1nnc(SCC(=O)N2CCCCCC2)n1CCc1ccccc1	0%	13%	5	-0.6%
Cc1ccc(Oc2ccc(NC(=O)CSc3n[nH]c(N)n3)cc2)cc1	-1%	-14%	-25	5.0%
C=CCOc1ccc(Br)cc1CNC(C)(C)CO	1%	-10%	0	2.6%
COc1ccc(C(C)=O)cc1CC(=O)Nc1ccc2c(c1)CCC2	-11%	-2%	·	-2.1%
CN1CCN(C2=Cc3ccc(Cl)cc3Sc3ccc(F)cc32)CC1	-7%	0%	0	0.5%
O=C(CN1C(=O)NC2(CCCC2)C1=O)NC(c1ccccc1)c1ccccc1	·	10%	·	7.3%
Cc1ccc2c(c1)sc1nc(=O)n(-c3ccc(Cl)c(Cl)c3)c(=O)n12	-10%&-4%	11%	1	-3.4%
O=S(=O)(c1ccc(Cl)cc1)c1nc(-c2ccccc2F)oc1NCCN1CCOCC1	-9%	-10%	·	2.5%

(cont.)
SMILES	miR-21 FLuc	Rango dissoc inh	GLA inh pH 4.5	Rango-impB inh
O=C(NCc1ccco1)c1cnccn1	3%	-5%	-1	-1.6%
Cc1ccc(-c2n[nH]c(=S)n2/N=C/c2ccc(C)s2)cc1	-6%	3%	-5	1.4%
O=C1CCCc2c1sc1nc3n(c(=O)c21)CCCCC3	-33%	-7%	10	2.0%
O=C(c1ccc(F)cc1)c1c[nH]c(C(=O)NCc2cccnc2)c1	22%	0%	2	-2.6%
Fc1ccccc1/C=C1\CCCC2=C1Nc1ncnn1C2c1ccccc1F (stereo not given)	?	·	-29	·
COc1ccc(/C=C(/C(=O)Nc2ccccc2C(=O)NC(C)C)c2ccccc2)cc1	2%	-5%	0	5.8%
O=c1cc(-c2ccc(C(F)(F)F)cc2)oc2ccccc12	·	1%	·	3.5%
CC1CCc2c(sc3ncnc(SC(C)C(=O)NCC4CCCO4)c23)C1 (stereo not given)	·	-12%	·	0.2%
CCN(Cc1ccccc1)C(=O)CCCOc1ccccc1	-50%	0%	1	-1.1%
Cc1ccc(C2(c3noc(CN4C[C@@H](C)O[C@@H](C)C4)n3)CCCC2)cc1	-2%	2%	5	-0.3%
CC(=O)C1=C(C)NC2=C(C(=O)c3ccccc32)C1c1ccccc1 (stereo not given)	-1%	11%	-20[21.1 µM]	0.8%
CN(C)c1ccc(C(=S)N2CCCCC2)cc1	-28%	6%	0	-0.7%
CCCCCSc1nnc2c(n1)OC(c1cccn1C)N(C(C)=O)c1ccccc1-2 (stereo not given)	-2%	1%	-20	5.0%
COc1ccc(Cl)cc1NC(=O)CCN1C(=O)NC(C)(C)C1=O	·	13%	·	-0.3%
CCSc1nnc(NC(=O)[C@@H](NC(=O)c2cccc(C)c2)C(C)C)s1	3%	0%	3	-3.6%
CCOC(=O)c1sc2nc(SC)nc(-c3ccccc3)c2c1N	-5%	-17%	-6	9.7%
CC[C@@]1(C(=O)OC)N[C@H](CN(C)C(=O)c2ccccc2)[C@@H]2C(=O)N(Cc3ccccc3)C(=O)[C@@H]21	·	8%	·	0.8%
Cc1nc2ccc([N+](=O)[O-])cc2c(=O)n1Cc1ccc(Cl)cc1	3%	0%	·	-1.1%
CCC(=O)Nc1c2c(nn1-c1ccc(C)cc1)CS(=O)(=O)C2	0%	-1%	·	-2.1%
O=C(O)C1CCCN(CCC=C(c2ccccc2)c2ccccc2)C1 (stereo not given)	·	1%	-4	-0.3%
CN(Cc1cccs1)C(=O)CCc1ccc(S(=O)(=O)N2CCOCC2)cc1	-3%	-3%	3	23%
COc1ccccc1-c1ccc(SCc2ccc([N+](=O)[O-])cc2)nn1	5%	0%	-3	?
COc1ccc2nc(CC(C)(C)CC(=O)O)c[n+]([O-])c2c1	-5%	-11%	2	-2.5%
CCCCn1c(N)c(N(CCOC)C(=O)Cn2c(=O)oc3ccccc32)c(=O)[nH]c1=O	·	-20%	·	0.4%
CCN(CC)C(=O)CSc1nc2ccccc2c(=O)[nH]1	-2%	4%	5	0.5%
C/C(=N/NS(=O)(=O)c1ccccc1)c1ccc(Cl)cc1	-1%	2%	7	-0.5%
CC(C)(C)c1ccc(C(=O)NCC(=O)OCC(=O)N2CCCC2)cc1	·	-2%	·	-2.0%
COc1ccc(C)cc1NC(=O)Nc1cccc(C)c1	-7%	12%	3	-1.8%
Clc1ccc(-c2csc(N/N=C\c3cccnc3)n2)cc1	-21%	-2%	-12	-1.1%
CCCCCn1c(NCc2ccco2)nc2ccccc21	-10%	12%	-6	-8.4%
Cc1cccc(COC(=O)C(Cc2ccccc2)NC(N)=O)c1 (stereo not given)	0%	7%	·	-0.3%

Compound activity deposited in PubChem by National Center for Advancing Translational Sciences (NCATS).
